ugtP null kill: kills S. aureus RN4220 lacking UgtP; S. aureus RN4220 ugtP deletion, OD600 growth, 16 h; some inactives read as strong as hits; growth inhibition, % (concentration not given with the values); 0.54% of 330,000 active; AID 1259309;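 active = z-score under -3 and OD600 up to 0.15 on both plates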;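 also: plate controls were untreated wells for no effect and antibiotic for full effect; wells of about 80 µL received 100 nL stock; the first replicate is given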
Autofluor counter: compound fluorescence in toxin protease inhibitor counterscreen | compound autofluorescence counterscreen, microsphere flow cytometry; active compounds read high | fluorescence intensity (test concentration not listed) | 3.1% of 360,000 active;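 active = at least 3 SD above the mean of all compounds, about 16000 in these data; inconclusive = too few beads counted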;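 also: 100 nL of 1 mM stock went into each well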
PrP UTR inh: inhibition of PrP 5' UTR reporter expression; cell-based PrP 5' UTR mRNA reporter, plate reader; inhibition, % (concentration not given with the values); 0.35% of 340,000 active;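 active = every replicate at 50% or more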;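 also: 0 = median of the neutral control wells; tested in H4 reporter cells; numbers are from one replicate; inactives centre near -14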
Mtb hypoxia rep: Mtb hypoxia fluorescent reporter inhibition; M. tuberculosis hypoxia-regulated fluorescent reporter, fluorescence; fluorescence inhibition, % (no concentration beside the values); 0.1% of 300,000 active;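 active = 35 to 45% if threefold the growth effect, above 45% if 1.5-fold the growth effect; inactive = the rest, general growth blockers included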;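 also: wells of about 50 µL received 100 nL stock; 0% = vehicle wells and 100% = reference inhibitor wells; whole bacteria with a GFP reporter of the hypoxia response; strong numbers were not always called active; many hits fall short of the cut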
BJeLR viability: kills HRASV12-expressing BJeLR cells; BJeLR (HRASV12) viability, CellTiter-Glo ATP luminescence, 48 h; reference of the scale not given here; inhibition, % (test concentration not listed); 0.17% of 300,000 active; AID 1554;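 active = replicate mean above 50%; inconclusive = above 50% but judged a plate artefact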;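 also: 50 nL library stock added to about 25 µL; numbers are from one replicate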
Sa RN4220 lethal: kills Staphylococcus aureus RN4220. S. aureus RN4220 growth, OD600, 16 h. inhibition, % (concentration not given with the values). 0.33% of 330,000 active;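 active = z-score of -3 or lower and OD600 up to 0.18 on both plates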;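 also: plate controls were untreated cells for no effect and reference antibiotic for full effect; stock transfer was 100 nL into about 80 µL; one replicate is shown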
Mtb hypoxia rep growth: further read-out of Mtb hypoxia rep, marked with its call; growth inhibition, %; measured here: M. tuberculosis growth (absorbance);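 0% = vehicle and 100% = reference antibiotic; read after six days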
An asterisk follows results filed as active.

The opening 2 entries, ahead of the listing:
COc1ccc(C2(O)C(=O)Nc3ccc(C)cc32)cc1OC (stereo not drawn) was read as ugtP null kill -4, Autofluor counter 3079, PrP UTR inh -14, Mtb hypoxia rep 15, BJeLR viability -4, Sa RN4220 lethal 1.1 and Mtb hypoxia rep growth 7.
Cc1ccc(S(=O)(=O)NC(=O)c2cc(C)n(CC(c3ccccc3)N(C)C)c2C)cc1 (stereo not drawn) was read as ugtP null kill 2, Autofluor counter 3326, PrP UTR inh -7, Mtb hypoxia rep -2, BJeLR viability 2, Sa RN4220 lethal 1.1 and Mtb hypoxia rep growth 1.

The list itself, previewed entries included:
COc1ccc(C2(O)C(=O)Nc3ccc(C)cc32)cc1OC (stereo not drawn) was read as ugtP null kill -4, Autofluor counter 3079, PrP UTR inh -14, Mtb hypoxia rep 15, BJeLR viability -4, Sa RN4220 lethal 1.1 and Mtb hypoxia rep growth 7.
Cc1ccc(S(=O)(=O)NC(=O)c2cc(C)n(CC(c3ccccc3)N(C)C)c2C)cc1 (stereo not drawn) was read as ugtP null kill 2, Autofluor counter 3326, PrP UTR inh -7, Mtb hypoxia rep -2, BJeLR viability 2, Sa RN4220 lethal 1.1 and Mtb hypoxia rep growth 1.
For COc1cc(OC)cc(-c2sc3ccc(OC)cc3c2-c2ccc(O)cc2)c1 the results were ugtP null kill 100*, Autofluor counter 4317, PrP UTR inh -13, Mtb hypoxia rep 7, Sa RN4220 lethal 99* and Mtb hypoxia rep growth 3.
For COc1cc(C(=O)NCCSc2ccc(Br)cc2)cc(OC)c1OC the results were ugtP null kill 7, Autofluor counter 18300*, PrP UTR inh -42, Mtb hypoxia rep 4, BJeLR viability -3, Sa RN4220 lethal 0.7 and Mtb hypoxia rep growth 5.
Screening COC(=O)c1ccc(NC(=O)NCCCl)cc1 returned ugtP null kill -3, Autofluor counter 3228, PrP UTR inh -20, Mtb hypoxia rep -1, BJeLR viability -2, Sa RN4220 lethal 3.4 and Mtb hypoxia rep growth 4.
For CCOc1ccc(OCCSc2nc(-c3ccccc3)cc(=O)[nH]2)cc1 the results were ugtP null kill -11, Autofluor counter 2124, PrP UTR inh -16, Mtb hypoxia rep 7, BJeLR viability -3, Sa RN4220 lethal -2.5 and Mtb hypoxia rep growth 1.
Screening O=C(CN1C(=O)C2CC=CCC2C1=O)Nc1ccc(S(=O)(=O)N2CCOCC2)cc1 (stereo not drawn) returned ugtP null kill 10, Autofluor counter 4593, PrP UTR inh -20, Mtb hypoxia rep 10, BJeLR viability -17, Sa RN4220 lethal 3.6 and Mtb hypoxia rep growth 5.
Screening C=CCSc1nnc(CCc2ccccc2)n1N returned ugtP null kill -5, Autofluor counter 4599, PrP UTR inh -10, Mtb hypoxia rep 1, Sa RN4220 lethal -0.7 and Mtb hypoxia rep growth 2.
`CCSc1nnc(NC(=O)c2nc(S(=O)(=O)Cc3ccc(F)cc3)ncc2Cl)s1` gave Autofluor counter 5195, PrP UTR inh -14 and BJeLR viability 6.
Screening Cc1ccc(C(=O)Nc2c3c(nn2C(C)(C)C)CS(=O)(=O)C3)cc1C returned ugtP null kill 1, Autofluor counter 20652*, PrP UTR inh -22, Mtb hypoxia rep -2, BJeLR viability 1, Sa RN4220 lethal 1.7 and Mtb hypoxia rep growth -9.
`Cc1ccc(CN(Cc2cc3cccc(C)c3[nH]c2=O)C(=S)NCCCN(C)C)cc1` gave ugtP null kill -2, Autofluor counter 3113, PrP UTR inh 10, Mtb hypoxia rep -7, BJeLR viability 2, Sa RN4220 lethal -7.9 and Mtb hypoxia rep growth 3.
For Cc1csc2c(N3CCN(C(=S)Nc4ccc(C(F)(F)F)cc4)CC3)ncnc12 the results were ugtP null kill -6, Autofluor counter 4738, PrP UTR inh -12, Mtb hypoxia rep 8, BJeLR viability -13, Sa RN4220 lethal -1.9 and Mtb hypoxia rep growth -7.
`O=C(Nc1ccccc1-c1nnc(SCc2ccccc2)o1)c1ccccc1` gave ugtP null kill 1, Autofluor counter 11346, PrP UTR inh -24, Mtb hypoxia rep -3, BJeLR viability 1, Sa RN4220 lethal 6.5 and Mtb hypoxia rep growth 11.
For CN(C)c1ccc(/C=N/Nc2nc3ccccc3o2)cc1 the results were Autofluor counter 3763, PrP UTR inh 48 and BJeLR viability -9.
`COc1ccc(N(CC(=O)Nc2ccc(C)cc2)S(=O)(=O)c2c(C)noc2C)cc1` gave ugtP null kill -2, Autofluor counter 5628, PrP UTR inh -11, Mtb hypoxia rep -3, BJeLR viability -13, Sa RN4220 lethal 2.7 and Mtb hypoxia rep growth 9.
Screening COC(=O)C1=C(O)/C(=C\c2cc(C)n(-c3ccc(F)cc3)c2C)N=C1C returned ugtP null kill 5, Autofluor counter 4530, PrP UTR inh -6, Mtb hypoxia rep 3, BJeLR viability -2, Sa RN4220 lethal 4.5 and Mtb hypoxia rep growth -3.
CC1(C)c2ccccc2-c2nc3ccccc3cc2C1O (stereo not drawn) was read as ugtP null kill 1, Autofluor counter 4152, PrP UTR inh -19, Mtb hypoxia rep -4, BJeLR viability -4, Sa RN4220 lethal 12 and Mtb hypoxia rep growth 9.
`COc1ccc(C(=O)N2CCN(S(=O)(=O)c3ccc(C)cc3)CC2)cc1S(=O)(=O)N1CCOCC1` gave ugtP null kill 15, Autofluor counter 4445, PrP UTR inh -20, Mtb hypoxia rep 5, BJeLR viability 12, Sa RN4220 lethal 2.5 and Mtb hypoxia rep growth -1.
`CNC(=S)Nc1ccc2nc(C)c(C)nc2c1` gave ugtP null kill -2, Autofluor counter 9278, PrP UTR inh -22, Mtb hypoxia rep 10, BJeLR viability 0, Sa RN4220 lethal 1.8 and Mtb hypoxia rep growth 9.
Screening O=c1oc2cc(OCc3c(F)c(F)c(F)c(F)c3F)ccc2cc1-c1ccccn1 returned ugtP null kill 7, Autofluor counter 2522, PrP UTR inh -28, Mtb hypoxia rep 14, BJeLR viability -5, Sa RN4220 lethal 2.0 and Mtb hypoxia rep growth 13.
O=C(CN1CCc2ccccc2C1)Nc1cc(S(=O)(=O)N2CCOCC2)ccc1N1CCOCC1 was read as ugtP null kill -2, Autofluor counter 2509, PrP UTR inh 3, Mtb hypoxia rep 5, BJeLR viability 1, Sa RN4220 lethal 1.5 and Mtb hypoxia rep growth 4.
`S=C(Nc1ccc2nc(-c3ccccn3)c(-c3ccccn3)nc2c1)N1CCCCC1` gave ugtP null kill 7, Autofluor counter 2750, PrP UTR inh -9, Mtb hypoxia rep 6, Sa RN4220 lethal 5.1 and Mtb hypoxia rep growth 9.
Cc1cc(NC(=O)CSc2nc(-c3cccs3)nc3ccccc23)no1 was read as ugtP null kill -7, Autofluor counter 3588, PrP UTR inh -5, Mtb hypoxia rep 3, Sa RN4220 lethal 0.8 and Mtb hypoxia rep growth 4.
Screening CCCCC(=O)OCC(=O)N1N=C(c2c[nH]c3ccccc23)C(O)C1c1ccc(OC)cc1 (stereo not drawn) returned ugtP null kill -8, Autofluor counter 4440, PrP UTR inh -19, Mtb hypoxia rep 1, BJeLR viability -3, Sa RN4220 lethal 8.5 and Mtb hypoxia rep growth -3.

Reprinted at random: 3 compounds from above, in no set order.
CC1(C)c2ccccc2-c2nc3ccccc3cc2C1O (stereo not drawn) was read as ugtP null kill 1, Autofluor counter 4152, PrP UTR inh -19, Mtb hypoxia rep -4, BJeLR viability -4, Sa RN4220 lethal 12 and Mtb hypoxia rep growth 9.
`CNC(=S)Nc1ccc2nc(C)c(C)nc2c1` gave ugtP null kill -2, Autofluor counter 9278, PrP UTR inh -22, Mtb hypoxia rep 10, BJeLR viability 0, Sa RN4220 lethal 1.8 and Mtb hypoxia rep growth 9.
Cc1cc(NC(=O)CSc2nc(-c3cccs3)nc3ccccc23)no1 was read as ugtP null kill -7, Autofluor counter 3588, PrP UTR inh -5, Mtb hypoxia rep 3, Sa RN4220 lethal 0.8 and Mtb hypoxia rep growth 4.

(continued)
CC(=C/c1ccco1)/C=N/NC(=O)c1nnn(-c2nonc2N)c1CN(C)C was read as Autofluor counter 4492, PrP UTR inh -9 and BJeLR viability -5.
For COc1ccc(S(=O)(=O)Nc2ccc3c(c2)N(C(C)=O)CCC3)cc1 the results were ugtP null kill 1, Autofluor counter inconclusive, PrP UTR inh 2, Mtb hypoxia rep 6, BJeLR viability 8, Sa RN4220 lethal 0.6 and Mtb hypoxia rep growth 0.
Screening Cc1ccc(C(=O)c2c3ccccc3[n+]([O-])n2CCO)cc1 returned ugtP null kill -9, Autofluor counter 4084, PrP UTR inh -12, Mtb hypoxia rep -6, BJeLR viability 1, Sa RN4220 lethal -3.0 and Mtb hypoxia rep growth -5.
`Cc1cc(OCc2nnc(SCC(=O)O)n2-c2ccccc2)ccc1Cl` gave Autofluor counter 4361, PrP UTR inh -7 and BJeLR viability 0.
CCN(CC)C(=O)[C@H]1C[C@H](CC(=O)NCCc2ccccn2)C(=O)N2CCc3c([nH]c4cc(CCC(=O)N(C)C)ccc34)[C@]12C was read as ugtP null kill 2, Autofluor counter 3573, PrP UTR inh -16, Mtb hypoxia rep -10, Sa RN4220 lethal 2.2 and Mtb hypoxia rep growth 4.
For COc1ccc(-c2noc3c2-c2nc(-c4ccc(C)cc4)sc2CC3)cc1 the results were ugtP null kill 7, Autofluor counter 3459, PrP UTR inh 2, Mtb hypoxia rep 1, BJeLR viability 8, Sa RN4220 lethal -4.1 and Mtb hypoxia rep growth 3.
For CCOC(=O)c1sc(NC(=O)CNC(=O)Cn2cnc3sc(C)c(C)c3c2=O)nc1C the results were ugtP null kill -2, Autofluor counter 2892, PrP UTR inh 25, BJeLR viability 3 and Sa RN4220 lethal 0.9.
Cc1cccc(C(=O)NNS(=O)(=O)c2ccccc2[N+](=O)[O-])c1 was read as ugtP null kill -1, Autofluor counter 3846, PrP UTR inh 8, BJeLR viability 2 and Sa RN4220 lethal 11.
Screening CC(=O)c1ccc(N2C(=O)[C@@H]3C(CCC(N)=O)NC4(C(=O)Nc5c4ccc(Cl)c5C)[C@@H]3C2=O)cc1 (stereo partly drawn) returned ugtP null kill 1, Autofluor counter 4516, PrP UTR inh -21, Mtb hypoxia rep 8, BJeLR viability -13, Sa RN4220 lethal 3.8 and Mtb hypoxia rep growth 9.
O=C(Cc1cccs1)Nc1ccc(-c2nc3ccccc3[nH]2)cc1 was read as ugtP null kill 5, Autofluor counter 4085, PrP UTR inh -150, Mtb hypoxia rep 16, BJeLR viability 3, Sa RN4220 lethal -10 and Mtb hypoxia rep growth 10.
For O=C(O)c1cc(S(=O)(=O)Nc2cc(Cl)ccc2Oc2ccccc2)ccc1O the results were ugtP null kill -5, Autofluor counter 3864, PrP UTR inh -11, Mtb hypoxia rep -7, Sa RN4220 lethal 3.6 and Mtb hypoxia rep growth -2.
CNC(=S)N1CCN(c2ccccc2OC)CC1 was read as ugtP null kill 10, Autofluor counter 15232, PrP UTR inh -5, Mtb hypoxia rep 3, BJeLR viability 7, Sa RN4220 lethal 3.9 and Mtb hypoxia rep growth 2.
Screening CCOC(=O)/C=C/C(=O)Nc1ccccc1-c1ccccc1NC(=O)/C=C/C(=O)OCC returned ugtP null kill 12, Autofluor counter 2079, PrP UTR inh -25, Mtb hypoxia rep 10, BJeLR viability -7, Sa RN4220 lethal 4.5 and Mtb hypoxia rep growth 4.
Screening Nc1c(C(=O)CSc2nnc(-c3ccccc3F)o2)c(=O)[nH]c(=O)n1C1CC1 returned ugtP null kill -2, Autofluor counter inconclusive, PrP UTR inh -3, Mtb hypoxia rep 9, Sa RN4220 lethal 2.9 and Mtb hypoxia rep growth 3.
`CCNC(=S)N1CCN(c2cccc(C(F)(F)F)c2)CC1` gave ugtP null kill 0, Autofluor counter 2174, PrP UTR inh -13, Mtb hypoxia rep 3, BJeLR viability -13, Sa RN4220 lethal -2.2 and Mtb hypoxia rep growth 5.
For COc1ccc(S(=O)(=O)N(CC(=O)NC2CC2)C2CCCCC2)cc1Cl the results were ugtP null kill 0, Autofluor counter 6800, PrP UTR inh -24, Mtb hypoxia rep 8, BJeLR viability 3, Sa RN4220 lethal -0.2 and Mtb hypoxia rep growth 2.
`O=C(COc1ccc(Cl)cc1)NCC(=O)N/N=C/c1cccs1` gave Autofluor counter 3334, PrP UTR inh 63* and BJeLR viability 6.
COc1ccc(-c2cn(CCC(=O)O)c(C)n2)cc1 was read as ugtP null kill -7, Autofluor counter 3966, PrP UTR inh -9, Mtb hypoxia rep 0, Sa RN4220 lethal 3.1 and Mtb hypoxia rep growth 7.
Cc1ccc(S(=O)(=O)NN=Cc2cc(Br)ccc2O)cc1 was read as ugtP null kill 24, Mtb hypoxia rep 2, Sa RN4220 lethal -18 and Mtb hypoxia rep growth 5.
